Screening results (PubChem)
CtBP-E1A inh = qHTS Assay for Inhibitors of the CtBP/E1A Interaction | CtBP / adenovirus E1A interaction (AlphaScreen) | AlphaScreen GST-E1A/His-CtBP binding, 1536-well; active compounds read low; control for the full effect not named in the record | activity change, % (test concentration not listed) | 340,000 tested, 0.49% active; in the data active means activity change below about -65%; inconclusive means about -30% to -65%; inactive means above about -30%; further: on the % scale 0 is the no-effect control and ±100 the full control effect
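Protein mix (5X: 125 nM each GST-E1A, His-CtBP) was incubated with pinned compound 2 h at 37 deg C in dark, in 50 mM Tris pH 8.0 buffer with 300 mM NaCl. Glutathione donor and nickel acceptor beads followed; AlphaScreen signal read after 1 h.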
D2 PAM = Beta-Arrestin HTS for Positive Allosteric Modulators of the Human D2 Dopamine Receptor: Potentiators. DiscoveRx D2 beta-arrestin cells, luminescence, 90 min; 100% = 57 uM dopamine signal. 360,000 tested, 0.23% active. D(2) dopamine receptor (Homo sapiens), P14416. potentiation, % (no concentration beside the values). AID 624464, 2012; active = potentiation of 50% or more; inconclusive = 30% to 50%; inactive = 30% or less;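 further: compound concentration not given in the record; tested on top of an EC20 dose of dopamine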
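PathHunter D2 cells, attached overnight at 37 deg C, received compound in DMSO plus dopamine at EC20 (50 nM final) for 90 min at 37 deg C. Beta-arrestin recruitment was read as luminescence after 1 h with detection reagent at ambient temperature.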
Six1-Eya2 inh = qHTS Assay for Inhibitors of the Six1/Eya2 Interaction; Homeobox protein SIX1 (Homo sapiens) + Protein phosphatase EYA2 (Homo sapiens), …; AlphaScreen GST-Six1/His-Eya2 binding, biochemical; active compounds read low; control for the full effect not named in the record; activity change, % (concentration not given with the values); 360,000 tested, 0.56% active; in the data active = activity change below about -65%; inconclusive = about -30% to -65%; inactive = above about -30%; further: on the % scale 0 is the no-effect control and ±100 the full control effect
Target sequence (O00167 whole entry, looked up): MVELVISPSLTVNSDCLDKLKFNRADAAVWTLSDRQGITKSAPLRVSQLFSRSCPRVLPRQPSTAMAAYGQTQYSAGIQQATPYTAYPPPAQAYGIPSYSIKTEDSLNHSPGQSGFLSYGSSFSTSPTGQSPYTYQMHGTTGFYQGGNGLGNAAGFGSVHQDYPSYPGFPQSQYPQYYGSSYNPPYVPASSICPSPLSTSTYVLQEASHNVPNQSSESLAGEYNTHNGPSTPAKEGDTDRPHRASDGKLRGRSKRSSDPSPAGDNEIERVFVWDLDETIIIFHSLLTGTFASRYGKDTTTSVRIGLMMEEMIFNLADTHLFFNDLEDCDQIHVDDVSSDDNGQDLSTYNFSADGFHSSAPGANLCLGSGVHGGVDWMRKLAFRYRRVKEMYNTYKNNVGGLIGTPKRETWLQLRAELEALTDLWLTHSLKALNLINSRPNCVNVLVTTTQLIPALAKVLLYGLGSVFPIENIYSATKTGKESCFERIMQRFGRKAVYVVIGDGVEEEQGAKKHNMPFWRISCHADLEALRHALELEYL
Target sequence (Q15475 whole entry, looked up): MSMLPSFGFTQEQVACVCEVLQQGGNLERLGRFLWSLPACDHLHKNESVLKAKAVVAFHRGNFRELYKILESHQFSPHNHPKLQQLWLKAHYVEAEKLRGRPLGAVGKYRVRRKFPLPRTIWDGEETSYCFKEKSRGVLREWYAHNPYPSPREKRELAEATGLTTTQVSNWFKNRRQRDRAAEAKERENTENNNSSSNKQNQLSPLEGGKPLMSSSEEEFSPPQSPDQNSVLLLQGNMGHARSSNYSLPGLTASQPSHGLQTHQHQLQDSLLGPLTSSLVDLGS
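AlphaScreen luminescence read after one hour at 37 °C in darkness. Pin-transferred compounds met GST-Six1 and His-Eya2 protein (5X stock 250 nM/500 nM) plus glutathione donor and Ni-chelate acceptor beads (5X, 50 ug/mL).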
gsp agonist = qHTS for Agonist of gsp, the Etiologic Mutation Responsible for Fibrous Dysplasia/McCune-Albright Syndrome: qHTS; gsp mutant cells, cAMP HTRF, 30 min; control for the full effect not named in the record; Potency, µM (highest dose often 76.9 µM), without a hit: top-dose activation (cAMP increase), hits mostly activators; 340,000 tested, 0.13% active; active = well fitted activation curve with a large enough effect; inconclusive = small, poorly fitted or top-dose-only effect, or another doubt; inactive = no such curve, though single readings can be large or run the other way; cell line not stated here;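 further: phosphodiesterase inhibitor Ro 20-1724 added with compounds to block cAMP breakdown; potency means the concentration at half of the fitted maximal effect; nearly all actives have a fitted effect of over 60% in size; about a fifth of the inactives were tested at one dose only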
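Cells stably selected in G418 were plated at 2000/well, grown 16-24 hr, then given compounds in DMSO with the PDE inhibitor […] (300 uM solution added) for 30 min at 37C; cAMP was read by HTRF.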
gsp antag = qHTS for Antagonists of gsp, the Etiologic Mutation Responsible for Fibrous Dysplasia/McCune-Albright Syndrome: qHTS; 340,000 tested, 0.4% active; AID 624288, 2012; Potency, µM (series often up to 76.9 µM), inactives show at the top dose activity change, negative = inhibition, actives largely listed as inhibitors; gsp-mutant cells, cAMP HTRF, 30 min; control for the full effect not named in the record; active = falling curve of any shape with a large fitted effect; inconclusive = falling curve, mostly with a smaller effect; inactive = flat or rising curve; cell line not stated here;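 further: intracellular cAMP measured with PDE inhibitor Ro 20-1724 present during compound exposure; potency means the concentration at half of the fitted maximal effect; on the % scale 0 is the no-effect control and ±100 the full control effect; nearly all actives have a fitted effect of over 65% in size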
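Cells in G418 medium, seeded 16-24 h, 37C; buffer exchange to DPBS + 1 mM CaCl2, 0.5 mM MgCl2, 0.05% BSA; cpds in DMSO + […] (300 uM stock), 30 min 37C; HTRF cAMP detection.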
D2 ag = Beta-Arrestin HTS for Positive Allosteric Modulators of the Human D2 Dopamine Receptor: Agonists | D(2) dopamine receptor (Homo sapiens), P14416 | DiscoveRx PathHunter D2 beta-arrestin, luminescence, 90 min; 100% = 57 uM dopamine signal | activation, % (no concentration beside the values) | 360,000 tested, 0.084% active; in the data active = activation above about 40%; inconclusive = about 15% to 40%; inactive = below about 15%; further: compound concentration not given in the record; the text of the record calls up to 30% inactive
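Agonist mode: compounds alone added to overnight-plated D2 PathHunter cells for 90 min at 37 C, with 57 uM final dopamine (EC100) defining full response. Beta-arrestin recruitment detected by chemiluminescent reagent, read after 1 h at ambient temperature.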
Active calls of the source: *; [ ] = dose if it differs, or a comment.

`O=C(O)c1cccc(N/C(=N\S(=O)(=O)c2ccccc2)c2ccccc2)c1` gave CtBP-E1A inh 7.2, D2 PAM -10.1, Six1-Eya2 inh -2.1, gsp agonist inconclusive, gsp antag 32.1%[activator] and D2 ag -2.2.
`O=C(CCN1C(=O)/C(=C/c2ccc(F)cc2)SC1=S)NCCc1cnc[nH]1` gave CtBP-E1A inh -25.9, D2 PAM -16.6, Six1-Eya2 inh -19.5, gsp agonist 0.8%, gsp antag -6.3% and D2 ag -1.3.
Cc1c(C)c2c(OCC(=O)NCc3ccccn3)cc3c(c2oc1=O)CCC(C)(C)O3 was read as CtBP-E1A inh -16.4, D2 PAM -11.3, Six1-Eya2 inh -9.0, gsp antag 4.4% and D2 ag -2.4.
Screening O=C(CSc1nnc2scc(-c3ccccc3)n12)Nc1nsc(-c2ccc(Cl)cc2)n1 returned CtBP-E1A inh 0.1, D2 PAM 25.8, Six1-Eya2 inh -1.8, gsp agonist 25.2%, gsp antag 0.8% and D2 ag 2.6.
`FC(F)(F)c1cc(-c2ccccc2)nc(NCC2CCCO2)n1` (configuration not stated) gave CtBP-E1A inh 46.0, D2 PAM -5.2, Six1-Eya2 inh 29.1, gsp agonist -15.8%, gsp antag -7.2% and D2 ag -2.7.
Screening CC(C)Cn1c(=O)c2c(nc3n2CCS3)n(C)c1=O returned CtBP-E1A inh -6.1, D2 PAM -6.1, Six1-Eya2 inh -2.3, gsp agonist -2.0%[15.4 µM], gsp antag 8.6% and D2 ag 3.7.
`Cc1cc(C)cc(NC(=O)COC(=O)c2cc(=O)[nH]c(=O)[nH]2)c1` gave CtBP-E1A inh -0.1, D2 PAM -7.9, Six1-Eya2 inh 16.2, gsp agonist 3.1%[15.4 µM], gsp antag -3.9% and D2 ag -3.5.
`Cc1ccc(S(=O)(=O)N(CC(=O)N/N=C/c2ccco2)Cc2ccccc2)cc1` gave CtBP-E1A inh inconclusive, D2 PAM -5.0, Six1-Eya2 inh inconclusive, gsp agonist -6.5%, gsp antag -10.0% and D2 ag 1.4.
`Cc1ccccc1OCCCC(=O)Nc1ccc(Br)cc1` gave CtBP-E1A inh 11.7, D2 PAM -25.4, Six1-Eya2 inh 8.3, gsp agonist 11.2%, gsp antag -9.2% and D2 ag -6.5.
For CCc1ccc(/C=C\C(=O)N2CCCC2)cc1 the results were CtBP-E1A inh 2.7, D2 PAM 2.7, Six1-Eya2 inh 6.1, gsp agonist -19.3%, gsp antag 1.8% and D2 ag 1.8.
CCOC(=O)c1cnc(SCCc2ccccc2)nc1N was read as CtBP-E1A inh 16.7, D2 PAM -2.9, Six1-Eya2 inh 15.6, gsp agonist -4.4%, gsp antag -11.3% and D2 ag 0.4.
`CCCc1c(C(=O)N/N=C(\C)c2cccnc2)nnn1-c1nonc1N` gave CtBP-E1A inh -15.3, D2 PAM -3.4, Six1-Eya2 inh 12.1, gsp agonist -44.3%[inhibitor] and D2 ag -2.5.
CCOC(=O)c1c(S(=O)(=O)N2CCN(c3ccc(C(C)=O)cc3)CC2)c(C)n(C)c1C was read as CtBP-E1A inh 0.9, D2 PAM 2.7, Six1-Eya2 inh -5.6, gsp agonist -9.8%, gsp antag -12.7% and D2 ag -1.1.
COc1ccc(CC(=O)OCC(=O)c2c[nH]c3ccccc23)cc1 was read as CtBP-E1A inh -0.4, D2 PAM -1.9, Six1-Eya2 inh 3.3, gsp agonist -110.0%[inhibitor], gsp antag 2.4% and D2 ag -3.1.
Screening Cc1ccc(/C=N/n2c(COc3ccccc3)n[nH]c2=S)s1 returned CtBP-E1A inh -1.5, D2 PAM -10.8, Six1-Eya2 inh -5.3, gsp agonist 4.4%, gsp antag inconclusive and D2 ag 2.5.
CCOc1ccc(NC(=O)CN(C)C(=O)c2ccccc2Cc2ccccc2)cc1OCC was read as CtBP-E1A inh -4.7, D2 PAM 0.2, Six1-Eya2 inh -9.2, gsp agonist -11.9%, gsp antag -9.2% and D2 ag -0.8.
Oc1ccccc1CNCC12CC3CC(CC(C3)C1)C2 was read as CtBP-E1A inh 8.5, D2 PAM -11.3, Six1-Eya2 inh 8.6, gsp agonist 18.3%[15.4 µM], gsp antag -1.2% and D2 ag -4.4.
`O=Cc1cccn1-c1c(C(=O)O)cnn1-c1ccccc1` gave CtBP-E1A inh 0.5, D2 PAM -3.5, Six1-Eya2 inh 2.0, gsp agonist inconclusive, gsp antag 5.5% and D2 ag 0.7.
Cc1cc(NC(=O)CN2C(=O)NC3(CCCCC3C)C2=O)no1 (configuration not stated) was read as CtBP-E1A inh 0.7, D2 PAM -9.7, Six1-Eya2 inh -1.0, gsp agonist -42.6%[inhibitor], gsp antag 10.9% and D2 ag -3.9.
For CCn1nc(C(=O)NNC(=O)c2cc(Cl)ccc2OC)c2ccccc2c1=O the results were D2 PAM -3.4, Six1-Eya2 inh -5.6, gsp agonist 5.9%, gsp antag -15.6% and D2 ag -4.2.
`O=C(/C=C/c1cccc(F)c1)Nc1cc(S(=O)(=O)N2CCOCC2)ccc1Cl` gave CtBP-E1A inh inconclusive, D2 PAM 3.6, Six1-Eya2 inh -16.4, gsp agonist 4.8%, gsp antag -22.2% and D2 ag -4.2.
`Cc1ccc(-c2nc3ccccc3[nH]2)cc1NC(=O)c1ccco1` gave CtBP-E1A inh -1.0, D2 PAM 19.5, Six1-Eya2 inh -1.9, gsp agonist -10.5%, gsp antag -5.5% and D2 ag -0.7.
For Cc1csc(NC(=O)CSc2nnc(-c3ccccn3)n2-c2ccc(C)c(C)c2)n1 the results were CtBP-E1A inh -3.5, D2 PAM -7.4, Six1-Eya2 inh -29.7, gsp agonist 1.8%[15.4 µM], gsp antag -0.1% and D2 ag -8.1.
For COc1ccc(C(=O)NNC(=O)CSc2nnnn2C)cc1 the results were CtBP-E1A inh 0.0, D2 PAM 2.9, Six1-Eya2 inh -3.5, gsp agonist -3.7%[15.4 µM] and D2 ag 0.2.
`O=C1N[C@@H](Cc2ccccc2)C(=O)N2[C@H]1C[C@]1(Br)c3ccccc3N(S(=O)(=O)c3ccc(F)cc3)[C@H]21` gave CtBP-E1A inh 5.3, D2 PAM -1.6, Six1-Eya2 inh -0.8, gsp antag -12.4% and D2 ag -0.8.
Screening CCN(CCCNC(=O)c1cn(CC)c2ccc(S(=O)(=O)N(C)C)cc2c1=O)c1cccc(C)c1 returned CtBP-E1A inh 2.1, D2 PAM -3.6, Six1-Eya2 inh -2.3, gsp agonist 25.6%, gsp antag -13.1% and D2 ag -2.2.
For COc1ccc(N(CC(=O)NCc2ccc(C)cc2)S(=O)(=O)c2c(C)noc2C)cc1 the results were CtBP-E1A inh 3.4, D2 PAM -3.0, Six1-Eya2 inh -0.7, gsp agonist -0.2%, gsp antag 11.5% and D2 ag -6.5.
For CCCn1nc(C(=O)NC2CCCCCC2)c2ccccc2c1=O the results were CtBP-E1A inh 4.7, D2 PAM -8.8, Six1-Eya2 inh 4.8, gsp agonist 12.3%, gsp antag 9.7% and D2 ag -3.0.
`COc1ccccc1OCCNC(=O)C1CCN(C(C)=O)CC1` gave CtBP-E1A inh 14.6, D2 PAM -5.8, Six1-Eya2 inh -2.1, gsp agonist 9.4%[15.4 µM], gsp antag 4.9% and D2 ag -0.2.
`COc1ccccc1NC(=O)c1ccc2c(c1)OCO2` gave CtBP-E1A inh 7.3, D2 PAM -2.3, Six1-Eya2 inh -5.4, gsp agonist -88.0%[inhibitor], gsp antag 4.6% and D2 ag 6.6.
For COc1ccc(S(=O)(=O)N2CCN(C(=O)CN3C(=O)NC(C)(C)C3=O)CC2)cc1 the results were CtBP-E1A inh -16.5, D2 PAM -2.6, Six1-Eya2 inh 1.4, gsp agonist 9.7%, gsp antag 3.5% and D2 ag -4.2.
For COCc1cc(=O)n2[nH]c(C)nc2n1 the results were CtBP-E1A inh 5.4, D2 PAM -0.8, Six1-Eya2 inh 6.5, gsp agonist -69.9%[inhibitor], gsp antag 8.7% and D2 ag 0.0.
Screening O=C(c1ccoc1)N1CCN(c2cc(-c3cccc(F)c3)nc3cc(-c4cccc(Cl)c4)nn23)CC1 returned CtBP-E1A inh -5.6, D2 PAM -4.0, Six1-Eya2 inh 9.4, gsp agonist 20.2% and D2 ag -4.0.
`O=C1[C@@H](Oc2ccccc2)[C@@H](c2ccncc2)N1c1ccncc1` gave CtBP-E1A inh 2.0, Six1-Eya2 inh 1.5, gsp antag -16.7% and D2 ag -2.9.
Screening CCCCN(C=O)c1c(CC)nc2ccc(C(=O)NCCCN3CCCC3=O)cn12 returned CtBP-E1A inh -2.5, D2 PAM -12.7, Six1-Eya2 inh 6.4 and D2 ag -5.4.
For C#CCOCCOCCOCCNc1nc(N2CCN(C(=O)C([C@@H](C)CC)n3cc(C(N)CC(C)C)nn3)CC2)nc(N2CCN(C(=O)[C@H](CCC(=O)O)n3cc(C(N)[C@H](C)CC)nn3)CC2)n1 (some centres not stated) the results were CtBP-E1A inh -5.7, D2 PAM -5.4, Six1-Eya2 inh -2.7, gsp antag 14.9% and D2 ag 0.4.
`NS(=O)(=O)c1ccc(NNC(=O)c2sccc2Cl)cc1` gave CtBP-E1A inh 0.9, D2 PAM 4.5, Six1-Eya2 inh 3.6, gsp agonist -5.5%[15.4 µM], gsp antag 7.9% and D2 ag -0.2.
CCCC(=O)Nc1ccc(C(=O)n2ccc(C)n2)cc1 was read as CtBP-E1A inh 0.7, D2 PAM -3.0, Six1-Eya2 inh 0.0, gsp agonist 0.4%[15.4 µM], gsp antag 2.3% and D2 ag 7.1.
O=C(O)CCCC(=O)NCCCc1ccccc1 was read as CtBP-E1A inh 7.4, D2 PAM -2.8, Six1-Eya2 inh 9.3, gsp agonist 4.0%, gsp antag -6.8% and D2 ag 0.2.
`O=S(=O)(c1ccccc1)N1CCn2c(nc3ccccc32)C1` gave CtBP-E1A inh 6.0, D2 PAM -4.3, Six1-Eya2 inh 1.0, gsp agonist 6.7%, gsp antag 7.4% and D2 ag -5.9.
`CCO[C@H]1OC(C(=O)N2CCN(C)CC2)=C[C@@H](C)[C@@H]1CCCO` gave CtBP-E1A inh 10.5, D2 PAM -11.5, Six1-Eya2 inh 1.5, gsp agonist -11.0%, gsp antag -8.4% and D2 ag -3.7.

2 entries picked at random from the list so far, as already listed:
`COc1ccccc1OCCNC(=O)C1CCN(C(C)=O)CC1` gave CtBP-E1A inh 14.6, D2 PAM -5.8, Six1-Eya2 inh -2.1, gsp agonist 9.4%[15.4 µM], gsp antag 4.9% and D2 ag -0.2.
`O=C1[C@@H](Oc2ccccc2)[C@@H](c2ccncc2)N1c1ccncc1` gave CtBP-E1A inh 2.0, Six1-Eya2 inh 1.5, gsp antag -16.7% and D2 ag -2.9.
